Bst PK mod – alters activity of Bacillus stearothermophilus pyruvate kinase | hit rate 1.2% among 51,000 | AID 361 | partly purified Bacillus stearothermophilus pyruvate kinase, luminescence ATP production; ribose 5-phosphate activator present at AC10 | Potency, µM; in the data active means potency below about 11 µM; inconclusive means mostly about 12 µM to 25 µM; inactive means weaker than that;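 the screen sought inhibitors and activators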;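 note: potency is the fitted concentration of half-maximal effect; scaled between full activation by ribose 5 phosphate and full inhibition by luteolin; about four in five hits inhibit and the cells do not say which; series up to 57 µM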
TsaE inh – YjeE (TsaE) inhibition, E. coli; purified YjeE, fluorescence polarisation of a bound ADP probe; Potency, µM; hit rate 0.05% among 71,000; active = well fitted falling curve; inconclusive = weaker or top-dose-only fall, or a rising curve; inactive = flat or poorly fitted curve;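 note: top concentration of the series not given in the record; excess ADP was the control for the full effect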
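Purified YjeE (10 uM) with BODIPY Texas Red-labeled ADP probe (2 uM); compounds pin-transferred, 15 min at room temperature. Binding inhibition read as decreased fluorescence polarization; ADP titration as control.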
Starred values were filed as active, the others as inactive; i = inactive; ? = inconclusive; · = no result given. Some of the compounds tested, so the mix of outcomes need not match the whole.

Preview, 3 compounds:
molecule | Bst PK mod | TsaE inh
Cc1ccc(S(=O)(=O)Nc2ccccc2C=O)cc1 | · | i
O=C(CN1C(=O)c2ccccc2C1=O)Nc1ccc(-c2nc3ccccc3o2)cc1 | >57 | i
O=C(Nc1cccc(NC(=O)c2cccnc2)c1)c1cccnc1 | >57 | i

Main list (from the top)
molecule | Bst PK mod | TsaE inh
Cc1ccc(S(=O)(=O)Nc2ccccc2C=O)cc1 | · | i
O=C(CN1C(=O)c2ccccc2C1=O)Nc1ccc(-c2nc3ccccc3o2)cc1 | >57 | i
O=C(Nc1cccc(NC(=O)c2cccnc2)c1)c1cccnc1 | >57 | i
CN(C)Cc1ccc(-c2cc3onc(-c4ccccc4)c3c(=O)n2C)cc1 | · | i
O=C(CSC1=Nc2ccccc2C2=NC(CC(=O)NC3CCCCC3)C(=O)N12)NCc1ccco1 (stereo not given) | >57 | i
Cc1cc(C)n(Cc2cccc(F)c2)c(=O)c1C#N | >57 | i
CSc1nc2n(n1)C(c1cc(Br)ccc1F)C(C(=O)N(C)C)=C(C)N2 (stereo not given) | >57 | i
O=C(NCCc1ccccc1)c1ccnc(/C=N/O)c1 | >57 | i
COc1ccc(-c2nc3c(=O)n(C)c(=O)[nH]c3n2CCc2ccccc2)cc1 | >57 | i
COc1cc(C(=O)OCCN2CCOCC2)cc(OC)c1OC | · | i
COc1ccc(N2C(=O)CCC(C(=O)Nc3ccccn3)C2c2ccc(OC)c(OC)c2)cc1 (stereo not given) | >57 | i
Cn1c(CCNC(=O)c2cccs2)nnc1SCC(=O)N1CCN(c2ccccc2)CC1 | >57 | i
CCNC(=O)NC(=O)COC(=O)CNC(=O)COc1ccccc1 | >57 | i
CCOC(=O)c1cc(NC(=O)CSCCO)ccc1Cl | >57 | i
CCCOc1ccc(N2C(=O)CC(N3CCN(c4ccccc4OC)CC3)C2=O)cc1 (stereo not given) | · | i
Cc1ccc(NC(=O)c2c(-c3c(F)cccc3Cl)noc2C)cc1F | · | i

One compound at a time, from the list above. Order of screens: Bst PK mod	TsaE inh
Record of Cn1c(CCNC(=O)c2cccs2)nnc1SCC(=O)N1CCN(c2ccccc2)CC1 → >57	i
Record of CN(C)Cc1ccc(-c2cc3onc(-c4ccccc4)c3c(=O)n2C)cc1 → ·	i

(further entries)
molecule | Bst PK mod | TsaE inh
O=C(c1ccc2c(c1)OCO2)N1CCN(c2ccccc2)CC1 | >57 | i
CC(C)CNS(=O)(=O)c1ccc(OCC(=O)Nc2ccc3c(c2)OCO3)c(Cl)c1 | >57 | i
COc1ccc(NC(=O)CC2Sc3ncnn3C2=O)cc1 (stereo not given) | · | i
Cc1ccc2oc(=O)n(Cc3ccccc3OC(C)C)c2c1 | >57 | i
O=C(O)CC(CC(=O)O)n1cccc1 | · | i
COc1ccccc1NC(=O)c1cc(C(=O)O)ccc1C(=O)O | >57 | i
COc1ccc(Cl)cc1NS(=O)(=O)c1ccc(S(=O)(=O)N2CCCC2)cc1 | >57 | i
Cc1onc(-c2ccccc2Cl)c1C(=O)NC1CCS(=O)(=O)C1 (stereo not given) | · | i
NC(=O)CSC1=Nc2ccccc2C2=NC(CC(=O)NCc3cccs3)C(=O)N12 (stereo not given) | >57 | i
CCOC(=O)C1CCN(Cc2nc3ccc(Cl)cc3n2CCO)CC1 | >57 | i
O=C(c1ccc2c(c1)OCCO2)C1CCN(C(=O)c2ccc(F)c(F)c2)CC1 | >11.4 | i
COC(=O)c1ccc(Sc2ccc(C)cc2)c(N)c1 | >57 | i
Cc1cc(N2CCN(S(=O)(=O)Cc3ccccc3)CC2)n2ncnc2n1 | >57 | i
CN(C)c1ncc2ncc(=O)n(C)c2n1 | · | i
Cn1cccc1Cc1nnc(SCC(=O)Nc2nc3ccccc3s2)n1CCc1ccccc1 | >57 | i
Cc1ccc(S(=O)(=O)c2c(N)n(/N=C/c3ccco3)c3nc4ccccc4nc23)cc1 | >57 | i
COc1ccccc1-n1nnnc1SCC(=O)Nc1cc(C)on1 | >57 | i
N#CC1=C(N)SC(N)=C(C#N)C1C1CC=CCC1 (stereo not given) | · | i
Clc1cccc(Cl)c1Cn1cnc(=NCc2ccco2)c2[nH]cnc21 | 2.17* | i
COc1ccc(NC(=O)CSc2c(C)nn(-c3nnc(C)c(=O)[nH]3)c2C)cc1 | >57 | i
COc1ccc(Cl)cc1NC(=O)CN1CCC(n2nnc3ccccc32)CC1 | >57 | i
COc1cccc(-c2cn3nc(C)c(C)nc3n2)c1 | i | i
CCN(c1ccccc1)S(=O)(=O)c1ccc(F)cc1C | >57 | i
CCN(CC)C(=O)c1cccc(-c2ccc(OC)cc2)c1 | >57 | i
CCOc1ccc(C(=O)C(c2ccccc2)N2CCOCC2)cc1 (stereo not given) | >57 | i
O=C(NC1CCS(=O)(=O)C1)c1cccc(S(=O)(=O)N2CCOCC2)c1 (stereo not given) | >57 | i
CC(=O)Nc1ccc(C)cc1 | · | i
CCCC[C@@H]1C[C@H]1C(NC(=O)c1ccc(C(F)(F)F)cc1)c1ccc(C(=O)OC)cc1 (stereo not given in full) | · | i
CC(C)=C(C#N)c1nc2ccccc2s1 | >57 | i
Cc1nc2nc(-c3ccco3)nn2c(C)c1Cl | >57 | i
C=CCNc1nc(NCc2ccccc2)c(C#N)c2c1CN(C)CC2 | >25.6 | ·
CCOc1ccccc1-c1nc(-c2cc3ccccc3nc2OC)no1 | >57 | i
CC1CCCCN1c1nnc(NC(=O)Cn2c(=O)oc3ccccc32)s1 (stereo not given) | · | i
Cc1cnc(C(=O)Nc2cccc(-c3nnc4n3CCCCC4)c2)cn1 | >57 | i
O=C(NCCN1CCOCC1)c1cc(S(=O)(=O)NCCCN2CCCC2=O)ccc1Cl | >57 | i
CCCc1cc(C(=O)Nc2sc(C)c(C)c2C(=O)OCC)no1 | · | i
CCn1cc(C(=O)Nc2cccc(C(=O)OC)c2)c(=O)c2ccc(C)nc21 | >57 | i
COc1ccc(NC(=O)CN2CC(c3ccccc3)CC2=O)cc1OC (stereo not given) | · | i
OC1CCCCC1 | · | i
Cc1ccccc1C1CC(c2ccccc2)Nc2ncnn21 (stereo not given) | · | i
C=CCn1c(Sc2nncn2C)nc2c1c(=O)[nH]c(=O)n2C | >57 | i
COc1ccccc1N1CCN(CCCNc2c(C)c(=O)n(C)c(=O)n2C)CC1 | · | i
S=C(NCC1CCCO1)n1nnc2ccccc21 (stereo not given) | >57 | i
CCOc1ccc(-c2nn3c(-c4ccccc4)nnc3s2)cc1 | 5.09* | i
O=C(NC1CCCCCC1)C1CCCN1S(=O)(=O)c1cccc2cccnc12 (stereo not given) | · | i
Cc1sc(NC(=O)c2ccco2)nc1-c1ccc2c(c1)CC(C)N2C(=O)C1CC1 (stereo not given) | >57 | i
COc1cc(CCC(=O)OCc2nnc(-c3ccccc3)o2)cc(OC)c1OC | >57 | i
O=c1cccccc1NCc1ccccc1 | · | i

Other results follow.
Each structure is followed by: Bst PK mod	TsaE inh
> Cc1cccc(N2CC34C=CC(O3)C(C(=O)O)C4C2=O)c1 (stereo not given)
    >57	i
> O=C(COc1ccc(S(=O)(=O)NC2CCCCC2)cc1)Nc1ccc2c(c1)OCCO2
    ·	i
> COC(=O)CN1C(=O)C2(C(C#N)=C(N)Oc3c2c(C)nn3-c2ccccc2)c2ccccc21 (stereo not given)
    >57	i
> COc1cc2c(cc1O)CCC1C2CC[C@@]2(C)C1CC[C@@H]2O (stereo not given in full)
    ·	i
> CN(Cc1ccccc1)c1nc2c(c(=O)n(C)c(=O)n2C)n1CCSc1ncccn1
    ·	i
> O=C(O)Cn1nc(C(F)(F)F)c2c1CCC2
    >57	i
> CCOc1ccc(-c2cnc(SCC(N)=O)nc2N)cc1
    10.2*	i
> CCOCCn1cnc2sc(C(=O)NCC(=O)OCC)c(C)c2c1=O
    >57	i
> Nn1c(SCC(=O)Nc2ccc(F)cc2F)nnc1C1CCCCC1
    >57	i
> CCc1nnc(NS(=O)(=O)c2ccc(NS(=O)(=O)c3ccccc3)cc2)s1
    >57	i
> C/C(=N\O)C(C)(C)NC(=O)Nc1ccc(Cl)cc1
    >57	i
> Cc1nn(C)c(C)c1S(=O)(=O)N1CCCC(C(=O)N2CCN(c3ccc(Cl)cc3)CC2)C1 (stereo not given)
    >57	i
> c1ccc(-c2oc3ncnc(NCCN4CCOCC4)c3c2-c2ccccc2)cc1
    >57	i
> COc1ccccc1-n1nnnc1SCC(=O)NC1CCCC1
    >57	i
> COc1cc(NC(=O)N2CCOCC2)cc(OC)c1
    >57	i
> N#Cc1cccc(NC(=O)CCC2CCCC2)c1
    >57	i
> CC(CCc1ccccc1)NC(=O)CSc1nc(N)cc(N)n1 (stereo not given)
    >57	i
> Cc1cccc(C2c3c(n(C)c(=O)n(C)c3=O)N=C3c4ccccc4C(=O)C32)c1 (stereo not given)
    >57	i
> CCC1Oc2ccccc2N(CC(=O)NCCN2CCc3ccccc3C2)C1=O (stereo not given)
    >57	i
> CCCCOc1nc(N)nc(-c2ccccc2)n1
    ·	i
> c1ccc(CNc2ncnc3ccc(-c4ccoc4)cc23)cc1
    ·	i
> CCC1CCCCN1CCCNC(=O)CC1Oc2ccccc2NC1=O (stereo not given)
    ·	i
> O=c1cc(-c2ccccc2)oc2cc(O[C@H]3O[C@H](CO)[C@@H](O)[C@H](O)[C@@H]3O)c(O)c(O)c12
    ·	i
> Cc1noc(C)c1C(=O)N1CCC2(CC1)CN(C(=O)Nc1cccc(F)c1)C2
    ·	i
> O=C(c1cc2ccccc2o1)c1cccs1
    ?	i
> COc1ccc(CC(=O)Nc2nncs2)cc1OC
    >57	i
> Cc1cc(-n2c(C)cc(C(=O)CSc3ccc4c(c3)OCCO4)c2C)no1
    >57	i
> NC[C@@H]1O[C@@H](O[C@H]2[C@H](O)[C@H](O[C@@H]3O[C@H](CO)[C@@H](O)[C@H](N)[C@@H]3O)[C@@H](N)C[C@H]2N)[C@H](N)C[C@@H]1O
    ·	i
> CNC(=O)CSCCn1c(SCC(=O)NC)nc2ccccc2c1=O
    >57	i
> CC(c1ccccc1)C1CC(=O)N(Cc2ccco2)C1=O (stereo not given)
    >57	i
> C=C(C)COc1ccc(-c2n[nH]c(C)c2Oc2ccccc2OC)c(O)c1
    >57	i
> Cc1cc(C)nc(N2CCCC(C(=O)Nc3nnc(C)s3)C2)n1 (stereo not given)
    >57	i
> Cc1oc(C)c2c(=O)ccc3c(c12)OC(N)=C(C#N)C3c1ccccc1 (stereo not given)
    >57	i
> CCOc1ccccc1C(=O)NCC(=O)OCC(=O)NCCc1ccc(S(N)(=O)=O)cc1
    >57	i
> Cc1ccccc1-n1c(Cn2c(=O)sc3ccccc32)nnc1SC(C)C
    ·	i
> COc1cc2[nH]c3c(=O)n(CCN4CCCCC4)cnc3c2cc1OC
    >57	i
> CCCCNC(=O)CCn1c(=O)c2ccccc2n(CC(=O)N2CC(C)CC(C)C2)c1=O (stereo not given)
    >57	i
> Cc1ccc(S(=O)(=O)N(CC(=O)O)Cc2ccccc2)cc1
    ·	i
> O=C(c1csc2c1CCCC2)N1CCCCC1
    ·	i
> Cc1ccc(N2C(=O)C3C4C=CC(C4)C3C2=O)cc1 (stereo not given)
    >57	i
> CCN1CCC[C@@H]1CNC(=O)c1c(O)c(Cl)cc(Cl)c1OC
    ·	i
> Cc1ccc(NC(=O)CN(C)S(=O)(=O)c2cnc[nH]2)cc1C
    >57	i
> COc1ccc(Oc2ncc3nc(-c4cc(F)cc(F)c4)c(=O)n(C)c3n2)cc1
    ·	i
> CC(=O)Nc1c(C(=O)c2ccc(F)cc2)oc2ccccc12
    >57	i
> Cc1nnc(SCC(=O)N2CCN(Cc3ccccc3)CC2)s1
    >57	i
> Cc1c(C(=O)Nc2ccc(C(=O)O)cc2)cnn1C
    >57	i
> CC(C)(C)C1CCC2(CC1)CCN(CCCN1CCOCC1)CC2
    ·	i
> O=C(Nc1ccccc1)N(Cc1cccnc1)Cc1ccco1
    >57	i
> Cc1ccccc1-c1nnn(CC(=O)NCc2ccc3c(c2)OCO3)n1
    >57	i
> CCOC(=O)C(O)(C1C(=O)CC(C)(C)CC1=O)C(F)(F)F (stereo not given)
    >25.6	·
> CCCCCn1c(N2CCOCC2)nc2c1c(=O)n(CC(N)=O)c(=O)n2C
    >57	i
> CCc1ccc(C2=Nn3c(nnc3-c3cccs3)SC2)cc1
    i	i
> CC(C)(C)n1nnnc1C(c1ccc(C#N)cc1)N1CCCC2(CCCCC2)C1 (stereo not given)
    >57	i
> COc1cc2c(cc1OC)-c1cc(NCc3ccccn3)nc(=O)n1CC2
    >57	i
> CC(=O)c1sc(Nc2ccccn2)nc1C
    ·	i
> O=S(=O)(c1ccc2nc(Cc3ccccc3)[nH]c2c1)N1CCOCC1
    >57	i
> Cc1cc(C)n(-c2ncc(-c3ccccc3)nn2)n1
    ·	i
> Cc1ccc(S(=O)(=O)c2nc(-c3ccccc3)oc2NCCN2CCOCC2)cc1
    >57	i
> CCOc1ccc(C2c3c(oc4cc(C)c(C)cc4c3=O)C(=O)N2CCCN(C)C)cc1OC (stereo not given)
    ·	i
> Cc1cc(C)n(-c2ccc(C(=O)NCc3cccs3)cc2)n1
    >57	i
> COc1ccc(C2C(C(=O)O)c3ccccc3C(=O)N2C)cc1Br (stereo not given)
    >57	i

Entries listed so far with a CF3 group:
Each structure is followed by: Bst PK mod	TsaE inh
> CCCC[C@@H]1C[C@H]1C(NC(=O)c1ccc(C(F)(F)F)cc1)c1ccc(C(=O)OC)cc1 (stereo not given in full)
    ·	i
> O=C(O)Cn1nc(C(F)(F)F)c2c1CCC2
    >57	i
> CCOC(=O)C(O)(C1C(=O)CC(C)(C)CC1=O)C(F)(F)F (stereo not given)
    >25.6	·

Screening results from PubChem BioAssay.
